Bioassay records from PubChem BioAssay.
RGS16-Gao = RGS16-Galphao interaction regulator (human) | binding response (% of control), % at 10 µM | O15492+P09471 | hit rate 0.38% among 220,000 | AID 1441 | bead-based flow cytometry RGS16-Galphao binding, fluorescence; actives lie on both sides;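 active = below 25% or above 175%, edge rows of some plates excepted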;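 also: Galphao activated by GDP with aluminum fluoride before binding; 100% = wells without compound and 0% = beads without RGS; some results beyond the cut were filed as inactive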
GALR2 ag = activates the human galanin receptor 2; activation, %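 (tested at 5 µM)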; GALR2-expressing cells, agonist activation read-out; hit rate 0.48% among 140,000;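 active = above mean plus 3 SD of all compounds, about 5% in these data, not always enough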;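 also: 0% = vehicle buffer wells and 100% = reference agonist at full effect; tested in CHO reporter cells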
Target sequence (O43603 whole entry, looked up): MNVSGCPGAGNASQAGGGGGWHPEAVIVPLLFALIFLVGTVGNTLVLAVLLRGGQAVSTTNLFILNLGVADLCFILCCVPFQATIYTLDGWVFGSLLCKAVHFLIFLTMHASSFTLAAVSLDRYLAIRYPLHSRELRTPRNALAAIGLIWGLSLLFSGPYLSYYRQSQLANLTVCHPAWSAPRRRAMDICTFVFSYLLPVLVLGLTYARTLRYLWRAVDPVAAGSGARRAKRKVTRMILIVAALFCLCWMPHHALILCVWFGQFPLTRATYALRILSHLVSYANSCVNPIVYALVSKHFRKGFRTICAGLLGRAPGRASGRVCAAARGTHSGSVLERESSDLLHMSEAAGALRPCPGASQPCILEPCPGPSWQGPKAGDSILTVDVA
Insulin prom inh = TRM-6 insulin promoter activity inhibition; TRM-6 cells (human fetal islet line), insulin promoter-eGFP reporter, imaging; reporter expression induced with tamoxifen; inhibition, % at 2 µM; hit rate 0.9% among 130,000; AID 1273;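 active = inhibition above the mean plus 3 SD, with well images judged a real hit on visual review, cut at about 60% in these data, passing the limit was not always enough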
PKD1 kinase inh = inhibitors of human PKD1 kinase; Q15139; PKD1 kinase fluorescence polarization assay; hit rate 0.056% among 200,000; inhibition, %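 (about 10 µM by stock and volumes)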;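 active = inhibition of 50% or more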;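 also: controls were vehicle for no effect and a reference inhibitor for full effect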
HSV replic up = HSV replication enhancement; HSV replication augmentation in cells, fold increase; hit rate 0.005% among 220,000; maximum fold increase; AID 1956;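 active = peak rise of 1.5-fold or more in the series; tested in PC3 cells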;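 also: first round at 10 µM; read as green reporter fluorescence; hits show the peak of a series up to 25 µM; 1 = signal of infected wells without compound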
Insulin prom inh cell count = also measured in Insulin prom inh; calls as there; normalized cell count, %; measured here: cell count, toxicity; reference of the scale not given here;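 cells exposed to compound for 48 h; stained nuclei by imaging scaled within each plate; lower means fewer cells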
HSV replic up primary fold = also measured in HSV replic up; calls as there; fold increase; compound at 10 µM; measured here: primary screen fold increase 10 uM; tested in PC3 cells;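 GFP signal in the first replicate; 1 = infected wells without compound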
* hit, by the source's call; i = inactive; nt = not tested or not shown.

Start of the data: the first 7 records, ahead of the listing:
SMILES	RGS16-Gao	GALR2 ag	Insulin prom inh	Insulin prom inh cell count	PKD1 kinase inh	HSV replic up	HSV replic up primary fold
CCC(=O)N1CC2(C)CN(C(=O)CC)CC(C)(C1)C2	102	-0.6	-6	122	-2	i	0.98
COC(=O)c1ccc(S(=O)(=O)NCc2ccccc2)n1C	105	nt	nt	nt	nt	i	1.2
Cc1ccc(C)n1NC(=O)c1ccccc1	108	-1.9	-32	157	0	i	1
Cc1cc(C)c(C(=O)c2ccc(C(=O)N(C(C)C)C(C)C)cc2)c(C)c1	102	-1.1	nt	nt	-1	i	1
Cn1c(=O)[nH]c(=O)c2c1nc(N1CCCCC1)n2CC(O)CN1CCCCC1 (stereo not given)	139	0.6	0	63	15	i	0.96
O=c1c2ccccc2nc(/C=C/c2ccc3c(c2)OCO3)n1CCCO	136	nt	-4	25	-12	i	0.82
CCN1C(=O)C2C(c3cccc(F)c3)NC(C)(C(=O)OC)C2C1=O (stereo not given)	85	-1.4	17	100	-7	i	1

All compounds of this part, from the first entry:
SMILES	RGS16-Gao	GALR2 ag	Insulin prom inh	Insulin prom inh cell count	PKD1 kinase inh	HSV replic up	HSV replic up primary fold
CCC(=O)N1CC2(C)CN(C(=O)CC)CC(C)(C1)C2	102	-0.6	-6	122	-2	i	0.98
COC(=O)c1ccc(S(=O)(=O)NCc2ccccc2)n1C	105	nt	nt	nt	nt	i	1.2
Cc1ccc(C)n1NC(=O)c1ccccc1	108	-1.9	-32	157	0	i	1
Cc1cc(C)c(C(=O)c2ccc(C(=O)N(C(C)C)C(C)C)cc2)c(C)c1	102	-1.1	nt	nt	-1	i	1
Cn1c(=O)[nH]c(=O)c2c1nc(N1CCCCC1)n2CC(O)CN1CCCCC1 (stereo not given)	139	0.6	0	63	15	i	0.96
O=c1c2ccccc2nc(/C=C/c2ccc3c(c2)OCO3)n1CCCO	136	nt	-4	25	-12	i	0.82
CCN1C(=O)C2C(c3cccc(F)c3)NC(C)(C(=O)OC)C2C1=O (stereo not given)	85	-1.4	17	100	-7	i	1
O=C1C2C3C=CC(C4CC34)C2C(=O)N1/N=C/c1ccc([N+](=O)[O-])o1 (stereo not given)	89	nt	-23	60	-3	i	0.87
N=C1C(c2ccccc2)=C(O)CN1c1cccc(S(=O)(=O)N2CCCCC2)c1	100	nt	nt	nt	nt	i	1.1
Cn1c(/C=N/NC(=O)c2ccccc2Br)nc2ccccc21	96	-1.7	3	122	-7	i	0.76
CC1CN(CCCOc2ccc([N+](=O)[O-])cc2)CC(C)O1 (stereo not given)	109	-0.6	14	136	0	i	1
COc1cc(NC(=O)CN2CCC(C)CC2)c(C)cc1[N+](=O)[O-]	109	1.0	nt	nt	-4	i	1
COc1ccc(CNC(=O)CN2C(=O)C3CCCN3c3ncc(Cl)cc32)cc1 (stereo not given)	88	-2.2	-10	91	-3	i	1.3
Cc1ccc2nc(-c3ccc(NS(=O)(=O)c4c(C)n(C)c(=O)n(C)c4=O)cc3)sc2c1	98	nt	nt	nt	nt	i	1
COc1ccc(Nc2nc3c([nH]2)c(=O)[nH]c(=O)n3C)cc1	107	nt	-75	93	0	i	1.1
C#CC[N+]1(CC#Cc2cccc3ccccc23)CCOCC1	108	nt	-14	102	-7	i	0.82
COc1ccc(Cl)cc1CN1CCN(c2nc(C)cc(C)c2C#N)CC1	105	0.0	7	162	-9	i	1.2
CC(C)c1nnc(NC(=O)CCC(=O)Nc2ccccc2)s1	100	nt	nt	nt	nt	i	0.93
O=Cc1ccc(OCc2ccccn2)cc1	106	-0.6	-271	59	9	i	0.95
O=c1c2c(-c3ccccc3)csc2ncn1/N=C/c1c2ccccc2cc2ccccc12	105	-0.5	-17	125	6	i	0.95
Cc1nc(SCC(N)=O)c(C#N)c(C)c1C	96	nt	nt	nt	nt	i	0.92
S=C(NCCN1CCOCC1)Nc1ccc(Nc2ccccc2)cc1	98	nt	nt	nt	-1	i	0.92
CC(=O)c1cc(C#N)c(N2CC(C)OC(C)C2)nc1C (stereo not given)	92	nt	nt	nt	-8	i	0.85
COc1ccc(CCNC(=S)NC(=O)c2cccc(Cl)c2)cc1OC	94	nt	nt	nt	nt	i	0.97
Cc1cccc(NC(=O)CSC(N)=O)c1C	60	-1.6	nt	nt	-15	i	0.89
CC(c1ccccc1)N1C(=O)/C(=C/c2ccncc2)SC1=S (stereo not given)	94	nt	nt	nt	nt	i	0.68
CCCc1c(O)nc(SCc2ccccc2)[nH]c1=O	101	-0.2	-62	52	-11	i	1
Cc1cc(-c2nnc(SCC(=O)Nc3ccccn3)o2)no1	111	nt	53	76	0	i	1
O=C(N=Nc1c(O)[nH]c2ccccc12)c1cc(-c2cccs2)[nH]n1	100	nt	nt	nt	nt	i	0.95
CSC1=NSC2=NC(=O)/C(=C\c3cccs3)C(=N)N12	225	-1.9	79*	57*	13	i	1
Cc1ccc(NC2(C(F)(F)F)N=C(c3ccccc3)NC2=O)nc1 (stereo not given)	87	-1.1	nt	nt	-3	i	0.96
Cc1ccc(-c2cc3c(nn2)-c2ccccc2C3=O)cc1	101	nt	nt	nt	nt	i	0.96
COc1ccc(CCNC(=O)c2cnccn2)cc1	102	nt	nt	nt	-14	i	0.82
O=C(O)CP(=O)(c1ccccc1)c1ccccc1	88	-0.8	nt	nt	0	i	0.92
Cc1c(N)cc[n+](CC(=O)c2ccccc2)c1C	109	nt	0	132	-5	i	0.98
CCC(C)C(NC(=O)c1ccccc1NC(=O)c1ccccc1)C(=O)O (stereo not given)	99	nt	nt	nt	nt	i	1.2
N#Cc1ccc(S(=O)(=O)Nc2ccc3ccccc3n2)cc1	100	nt	nt	nt	nt	i	0.93
COc1ccc(C(=O)Nc2ccc3c4c(cccc24)CC3)cc1	107	-0.5	100*	0.9*	-5	i	0.85
Cc1onc(-c2ccccc2)c1CNC(=O)Nc1ccc(C(F)(F)F)cc1	103	nt	nt	nt	nt	i	1.1
Cc1nc(C(=O)NCc2ccccc2)sc1C1(C)CC(c2cccnc2)=NO1 (stereo not given)	103	nt	nt	nt	nt	i	0.86

Reformatted with each value named: entries from further up.
O=C(O)CP(=O)(c1ccccc1)c1ccccc1
  RGS16-Gao: 88
  GALR2 ag: -0.8
  Insulin prom inh: nt
  Insulin prom inh cell count: nt
  PKD1 kinase inh: 0
  HSV replic up: i
  HSV replic up primary fold: 0.92

Cc1ccc(NC2(C(F)(F)F)N=C(c3ccccc3)NC2=O)nc1 (stereo not given)
  RGS16-Gao: 87
  GALR2 ag: -1.1
  Insulin prom inh: nt
  Insulin prom inh cell count: nt
  PKD1 kinase inh: -3
  HSV replic up: i
  HSV replic up primary fold: 0.96

N#Cc1ccc(S(=O)(=O)Nc2ccc3ccccc3n2)cc1
  RGS16-Gao: 100
  GALR2 ag: nt
  Insulin prom inh: nt
  Insulin prom inh cell count: nt
  PKD1 kinase inh: nt
  HSV replic up: i
  HSV replic up primary fold: 0.93

COc1ccc(CCNC(=O)c2cnccn2)cc1
  RGS16-Gao: 102
  GALR2 ag: nt
  Insulin prom inh: nt
  Insulin prom inh cell count: nt
  PKD1 kinase inh: -14
  HSV replic up: i
  HSV replic up primary fold: 0.82

New compounds follow
SMILES	RGS16-Gao	GALR2 ag	Insulin prom inh	Insulin prom inh cell count	PKD1 kinase inh	HSV replic up	HSV replic up primary fold
Cc1ccsc1C1C2=C(CCCC2=O)Nc2ncnn21 (stereo not given)	102	-1.2	-62	85	-2	i	0.92
Cc1ccc(S(=O)(=O)c2ccc(NN)cc2)cc1	116	nt	27	74	-4	i	1
COCCNC(=O)CCCCCn1c(=S)[nH]c2ccccc2c1=O	102	-2.7	19	77	-6	i	0.74
O=C(Cn1cccc1C(=O)c1ccccc1)NCc1ccc(Cl)cc1	103	nt	-7	72	0	i	1
c1ccc(-n2nnnc2Oc2cccc3cccnc23)cc1	107	-3.1	45	89	0	i	0.73
Cc1ccc(Cl)cc1NC(=O)C[n+]1ccc(Cc2ccc([N+](=O)[O-])cc2)cc1	95	nt	44	118	-1	i	0.9
COC(=O)C1=C(C(=O)OC)[C@@H]2N(Cc3ccccc3)c3ccccc3[C@@]23C[C@@H](CO)N(C(=O)NC2CCCC2)C3=N1	98	nt	nt	nt	nt	i	0.9
O=C(Nc1nnc(-c2ccco2)o1)c1cccc2ccccc12	99	0.0	nt	nt	-4	i	1.1
CCOc1ccccc1C1N=C(c2ccc(OC)cc2)CC(c2ccccc2O)N1 (stereo not given)	105	nt	35	123	-3	i	0.73
CC1Cc2ccccc2N1C(=O)COC(=O)C1=COCCO1 (stereo not given)	102	-1.1	nt	nt	-3	nt	nt
CC(C)(C)n1nc2c(c1NC(=O)COc1ccc3ccccc3c1)CS(=O)C2 (stereo not given)	103	-1.1	nt	nt	9	nt	nt
Cc1ccc2sc(NNC(=O)c3cc(=O)c4ccccc4o3)nc2c1C	93	nt	nt	nt	0	nt	nt
NC(N)=NC(N)=Nc1cccc2ccccc12	102	nt	nt	nt	nt	i	0.95
CCC(=O)N(CCC(c1ccccc1)c1ccco1)Cc1cccs1 (stereo not given)	98	-1.0	0	90	1	i	0.96
O=c1[nH]c(=O)c2nc(-c3ccc(Cl)cc3)cnc2[nH]1	99	nt	11	119	-1	i	0.94
NC(=O)c1ccsc1NC(=O)CSc1nnc(Nc2ccccc2)s1	99	nt	-35	127	-3	i	0.93
CCOC(=O)c1nn(-c2ccccc2)c(=O)cc1SC(C)CC (stereo not given)	103	-1.0	-13	97	-5	i	0.94
Cc1oc(C)c(C(=O)NCCCC(=O)O)c1C(=O)NCCCC(=O)O	105	-2.8	-21	88	4	i	0.95
CCN(Cc1ccccc1)S(=O)(=O)c1cc(C(=O)c2c(N)n(C)c(=O)n(C)c2=O)ccc1OC	105	nt	14	138	1	i	0.92
COc1ccc(CC(=O)OCc2cc3cccc(C)c3[nH]c2=O)cc1	100	-0.3	43	90	5	i	1
Cc1ccc(-n2nnnc2SCCNS(=O)(=O)c2ccccc2)cc1C	103	-0.8	nt	nt	-8	i	0.81
Cc1cc(OCC(=O)N[C@@H](Cc2ccccc2)c2nc3ccccc3[nH]2)ccc1Cl	109	0.0	14	91	0	i	1
Nc1nnc(CC(=O)N/N=C/c2ccc(-c3ccc(Cl)cc3Cl)o2)s1	102	nt	nt	nt	nt	i	0.95
COc1ccccc1CCNC(=O)c1csc2c1CCCC2	96	nt	nt	nt	3	i	0.91
CCCCCc1cc(=O)oc2c(C(CCN3CCCC(C)C3)c3ccc(N(C)C)cc3)c(OC)cc(OC)c12 (stereo not given)	108	nt	nt	nt	nt	i	0.57
